VDR inhibitor – vitamin D3 receptor (human) inhibition. P11473. VDR-SRC2-3 peptide fluorescence polarization, 2 h. Potency, µM, without a hit: max response, negative = inhibition, most hits filed as inhibitors. actives 0.93% (n = 400,000). AID 504847; active means well fitted inhibition curve with a large enough effect; inconclusive means small, poorly fitted or top-dose-only effect, or another doubt; inactive means no such curve, though single readings can be large or run the other way; further: series mostly up to about 120 µM
Target sequence (P11473 whole entry, looked up): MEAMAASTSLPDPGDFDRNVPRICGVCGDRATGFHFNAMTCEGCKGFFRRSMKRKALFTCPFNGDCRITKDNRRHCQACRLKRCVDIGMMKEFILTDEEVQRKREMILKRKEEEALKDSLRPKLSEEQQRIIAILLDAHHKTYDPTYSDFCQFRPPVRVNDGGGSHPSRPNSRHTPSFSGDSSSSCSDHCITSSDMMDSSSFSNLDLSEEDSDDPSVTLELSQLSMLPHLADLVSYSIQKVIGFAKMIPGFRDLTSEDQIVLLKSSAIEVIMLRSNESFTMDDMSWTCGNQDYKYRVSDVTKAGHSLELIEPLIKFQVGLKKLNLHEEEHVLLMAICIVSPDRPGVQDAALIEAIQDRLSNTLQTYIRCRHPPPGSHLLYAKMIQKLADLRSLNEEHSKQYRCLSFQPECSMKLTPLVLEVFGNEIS
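Compounds are added to VDR with labelled SRC2-3 coactivator peptide and held 2 h at room temperature. Inhibition of the VDR–peptide interaction is then read as a change in fluorescence polarization.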
* = called active by the depositor; u = inconclusive; & = joins results of further samples; [ ] = another dose, or the depositor's remark. On the % scale 0 is the no-effect control and ±100 the full control effect; potency means the concentration at half of the fitted maximal effect.

SMILES,VDR inhibitor
CCn1c(=O)c(=O)[nH]c2cc(C(=O)N3CCN(Cc4ccc5c(c4)OCO5)CC3)ccc21,-14%
CC1CCN(C(=O)COC(=O)/C=C/c2ccc([N+](=O)[O-])cc2)CC1,-8%
C/C(N)=C(/C#N)C(=O)CSc1nnc(Nc2cccc(C)c2)s1,-16%&2%
O=C(NCC1CCCCC1)C12CN(Cc3ccccc3)CC1C(c1cccc([N+](=O)[O-])c1)=NO2 (stereo not given),-9%
COc1ccc(C(C)=O)cc1COC(=O)c1c(C)noc1C,-8%
Cc1cc(C)cc(CC2CC(=O)N(c3ccc([N+](=O)[O-])cc3)C2=O)c1 (stereo not given),15%
Oc1cccc(C(O)CNCc2ccc(-c3ccccc3)cc2)c1 (stereo not given),0%
Cc1cc(C)n2nc(C(=O)N3CCN(Cc4ccc5c(c4)OCO5)CC3)nc2n1,-8%
CC1(C)CC(=O)c2cc(OCC(=O)N3CCCCCC3)ccc2O1,15%
COc1cccc(NC(=S)N(Cc2ccc(C)cc2)Cc2ccccn2)c1,u
CC(=N\Nc1ccccc1)/C(=N/O)C(=O)Nc1ccccc1,18%
Cc1ccc2oc(C(=O)N3CCC(O)(c4cccc(C(F)(F)F)c4)CC3)c(C)c2c1,0%
O=C(N/C(=C/c1cccnc1)C(=O)N1CCOCC1)c1ccco1,-8%
CCC(OC(=O)C(C)N1C(=O)C(=O)c2ccccc21)C(=O)Nc1ccccc1OC (stereo not given),-29%
Cc1c(-n2c(-c3ccccc3)nc3ccccc3c2=O)c(=O)n(-c2ccccc2)n1C,-2%
Cc1cc(O)c(C(c2ccccc2)N2CCN(c3ccccc3)CC2)c(=O)n1Cc1ccco1 (stereo not given),-9%
CC(=O)OCC1=C[C@H]2[C@@H]3C(C)(C)[C@]3(OC(C)=O)C[C@@H](C)[C@]2(O)[C@@H]2C=C(C)C(=O)[C@@]2(O)C1,1%
CC(=O)C(C(C)=O)c1cc(NS(=O)(=O)c2ccccc2)ccc1NS(=O)(=O)c1ccccc1,8%
COc1ccc(OC)c(NC(=S)NCCCN2CCOCC2)c1,-5%
O=C(COc1cccc2cccnc12)N/N=C1\SCC(=O)N1Cc1ccccc1,4%
O=C(OCC(=O)N1CCOCC1)c1ccccc1Br,5%
O=S(=O)(c1ccccc1)c1nc(NCc2cccnc2)sc1Cl,7%
Cc1ccc(-n2c(Cc3cccn3C)nnc2SCC(=O)Nc2cc(C)on2)cc1,-2%
Cc1ccc(-n2ncc3c(SCc4cccc(C)c4)ncnc32)cc1,-7%
CC(C)N(Cc1ccccc1)C(=S)Nc1ccccc1F,-20%
O=C(CCN1C(=O)[C@@H]2Cc3ccccc3CN2C1=O)Nc1cccc(F)c1,-1%
CS(=O)(=O)c1ccc(C(=O)NC2CCOC2=O)cc1 (stereo not given),-3%
CNC[C@@H]1Oc2c(NC(=O)Nc3ccccc3)cccc2C(=O)N([C@@H](C)CO)C[C@H]1C,-22%
COc1ccc(-c2cc(C(=O)Nc3c(C(=O)c4ccc(C)cc4)oc4ccccc34)no2)cc1,9%
CCN(CC)C(=O)c1ccc(-c2ccccc2)cc1,-6%

The closing 5 entries of the part above are carried over, then new ones follow:
SMILES,VDR inhibitor
O=C(CCN1C(=O)[C@@H]2Cc3ccccc3CN2C1=O)Nc1cccc(F)c1,-1%
CS(=O)(=O)c1ccc(C(=O)NC2CCOC2=O)cc1 (stereo not given),-3%
CNC[C@@H]1Oc2c(NC(=O)Nc3ccccc3)cccc2C(=O)N([C@@H](C)CO)C[C@H]1C,-22%
COc1ccc(-c2cc(C(=O)Nc3c(C(=O)c4ccc(C)cc4)oc4ccccc34)no2)cc1,9%
CCN(CC)C(=O)c1ccc(-c2ccccc2)cc1,-6%
O=C(CSc1ccc([N+](=O)[O-])cn1)Nc1nccs1,-8%
Cc1cc(C)c(NC(=O)C(C)n2nc(-c3ccc(C)c(C)c3)ccc2=O)c(C)c1 (stereo not given),7%
CCOC(=O)c1c(CN2CCNCC2)nc2ccc(Cl)cc2c1-c1ccccc1,-6%
COCCCn1c(SCC(=O)N2CC(=O)Nc3ccccc32)nnc1-c1ccoc1C,-4%
O=C(CNC(=S)N(Cc1ccccc1Cl)C1CCCC1)NCCN1CCOCC1,14%
COc1cc(NC(=O)c2ccccc2)c(OC)cc1NC(=O)CN1CCOCC1,1%
C#CCOCCOCCOCCNc1nc(N2CCN(C(=O)CCCCCCCCCCNC(=O)[C@@H](CCSC)n3cc(CCO)nn3)CC2)nc(N2CCN(C(=O)CCCCCCCCCCNC(=O)[C@H]([C@@H](C)CC)n3cc(CCCCCN)nn3)CC2)n1,57%[activator]
O=c1c2c3c(sc2nc2n1CCCC2)CCCCC3,-3%
c1ccc(Cc2nnc(SCc3nc(-c4cccs4)no3)n2-c2ccccc2)cc1,-5%
O=C(Cc1ccc(NC(=O)C2CCN(C(=O)C3CC3)CC2)cc1)Nc1cccc(C(=O)N2CCCC2)c1,-12%
C[C@H](NC(=O)c1nc[nH]c1C(=O)N1CCc2ccccc2C1)C(=O)OC(C)(C)C,-13%
O=C(Cc1sc(Nc2ccccc2)nc1-c1ccccc1)NCc1ccccc1,-18%
Cc1sc2nc(CSCC(=O)Nc3cc(F)ccc3F)[nH]c(=O)c2c1C,-1%
CCOc1ccccc1NC(=O)CCCNC(=O)Cn1cnc2sc(C)c(C)c2c1=O,3%
COc1cc(CNCCc2ccc(S(N)(=O)=O)cc2)ccc1OCC(=O)NC1CCCCC1,-3%
CCc1ccc(-n2c(O)cnc2Nc2nc(C)cc(C)n2)cc1,-21%
Cc1cc2cc3c(cc2nc1SCC(=O)Nc1c(C)cccc1C)CCC3,-2%
COc1ccccc1CNC(=O)CCC(=O)N1CCOc2ccc(Cl)cc21,-17%
CS(=O)(=O)N(CC(=O)Nc1ccccc1)Cc1ccc(Cl)cc1,12%
CCOC(=O)N1CCN(C(=O)Cc2ccsc2)CC1,4%
N#Cc1c(N)n(-c2cccc(Cl)c2)c2nc3ccccc3nc12,-6%
Cc1ccc(N2C(=O)c3ccc(C(=O)N4CCN(c5ccc(C)c(C)c5)CC4)cc3C2=O)cc1,-15%
Cc1ccc(Cn2c(=O)n(-c3cccc(C(F)(F)F)c3)c(=O)c3c(C)c(C)sc32)c(C)c1,-10%
CC(C)Oc1ccc(CNS(=O)(=O)c2csc(C(N)=O)c2)cc1,17%&-4%
Cc1ccc(-n2nc(C(=O)O)c3ccccc3c2=O)cc1C,2%
CC(C)(C)CC(C)(C)N=C1Nc2cc(Cl)c(Cl)cc2NC12C[C@H]1CCC(=O)N3CC[C@@H](C2)[C@@H]13 (stereo not given in full),2%
O=C(c1ccccc1)C(CN1CCCCC1)c1ccccc1 (stereo not given),25µM*
Cc1cc(-n2cnc(-c3cn[nH]c3C)n2)no1,u
COc1cccc(C(=O)/C=C/c2ccc(SC)cc2)c1,u
CC(=O)Oc1ccc2nc(/C=C/c3ccccc3)oc(=O)c2c1,3%
CC(C)(C)N(Cc1ccccc1)C(=O)COC(=O)/C=C/c1ccc2c(c1)OCO2,5%
CCn1c(C)c(C)c2cc(C(=O)NCCCN3CCCCC3)ccc21,-11%&6%
C/C(=N\NC(=O)c1ccccc1)c1ccc(C)c([N+](=O)[O-])c1,-21%
COc1ccc(CC(=O)Nc2cccc(C(C)=O)c2)cc1S(=O)(=O)N1CCOCC1,0%
Cc1ccc(C(=O)N2CCC(C(=O)Nc3cccc([N+](=O)[O-])c3)CC2)cc1,-2%
CCc1ccc(N(C(=O)c2ccco2)C(C(=O)NC2CCCC2)c2ccco2)cc1 (stereo not given),-4%
O=C(NCc1ccc2c(c1)CCN2C(=O)c1ccncc1)c1ccccc1Cl,2%
CC(C)c1ccc(C(O)Cc2nc3ccccc3n2C)cc1 (stereo not given),-17%
N#Cc1c(-c2ccccc2)cc(-c2ccccc2)nc1SCC(=O)Nc1ccc(Cl)cc1,-14%
CCc1ccc(NC(=O)N2c3ccccc3Sc3ccccc32)cc1,-2%
O=C(CN1C(=O)NC2(CCCCCCC2)C1=O)Nc1c(Cl)cccc1Cl,5%
Cc1cccc(N2C(=O)C(O)=C(C(=O)c3cccs3)C2c2ccc(F)cc2)n1 (stereo not given),-8%
CC1CC2c3cccc(C(=O)O)c3C(=O)N2c2ccc(Cl)cc21 (stereo not given),8%
Cc1nnc(NC(=O)CSc2nc(N)c(NC(=O)c3cccs3)c(=O)[nH]2)s1,-6%
CC(=O)c1cccc(NC(=O)CN(C)S(=O)(=O)c2ccccc2)c1,-5%
CCOc1ccc(C(C)C)cc1S(=O)(=O)n1nc(C)cc1C,5%
CCNc1ccccc1CP(=O)(c1ccccc1)c1ccccc1O (stereo not given),20µM*
CCn1nc(C(=O)Nc2ccc(C)c(C)c2)c(Cl)c1Cl,4%
CC(CCc1ccccc1)NC(=O)CCNC(=O)c1ccccc1Cl (stereo not given),-9%
Cc1ccc2sc(C)[n+](CCC(C)S(=O)(=O)[O-])c2c1 (stereo not given),u
CCC(C)NC(=O)C1CC(c2ccc(OC)cc2)=NO1 (stereo not given),4%
CC1(C)CN(c2ccsc2C(=O)O)C1=O,2%
CN(Cc1ccccc1)CC(O)COc1ccc(CNCCOc2cccnc2)cc1 (stereo not given),-15%
COc1cccc(CN2C(=O)c3ccccc3Sc3ccc(C(=O)NCCc4ccc(Cl)cc4)cc32)c1,-5%
CCN(CC)C(=O)C1CCCN(c2ccc([N+](=O)[O-])cc2/C=N/NC(=O)c2cccc([N+](=O)[O-])c2)C1 (stereo not given),3%
CCC1(O)CCCC2C3CCC4CC(=O)CCC4(C)C3C(=O)CC21C (stereo not given),-10%
COCCN(CCOC)CC(O)COC(c1ccccc1)c1ccccc1 (stereo not given),0%
O=C1NN(c2ccc(F)cc2)C(=O)/C1=C/c1cccs1,u
CCCCCCCOc1ccc(-c2ccc(C#N)cn2)cc1,-15%
CCCCN(C(=O)NC(=O)Nc1nc2ccc(OC)cc2s1)S(C)(=O)=O,-1%

More entries follow:
SMILES,VDR inhibitor
COCCN(C(=S)Nc1cc(C)cc(C)c1)C(C)c1cccnc1 (stereo not given),-5%
COCCc1ncc(CN2CCCC(C(=O)Nc3cccc(-c4cccc(C)c4)c3)C2)cn1 (stereo not given),-26%
O=C(O)CCn1c(-c2ccccc2)cc2ccccc21,-13%
CCOC(=O)c1c(/N=C/N(C)C)sc(C=O)c1-c1ccccc1,1%
CCn1c(=O)c(CCC(=O)NCC2CCCO2)c(C)c2c(C)nn(-c3ccccc3)c21 (stereo not given),4%
Cc1ccc(CCNC(=O)C2CCN(S(=O)(=O)c3cccc4nsnc34)CC2)cc1,2%
Cc1[nH]c(=O)[nH]c(=O)c1S(=O)(=O)N1CCCC1,0%
COc1ccc(-c2coc3c2c(C)cc2oc(=O)c(C)c(C)c23)cc1,15%
O=C(O)CCCC(=O)Nc1cccc([N+](=O)[O-])c1,-15%
Cc1cc(NC(=O)CC#N)n(-c2nc3ccccc3[nH]2)n1,-12%
CC(C)CN(CC(C)C)C(=O)Cc1coc2ccc3ccccc3c12,-14%
CCc1c(C)nc(SCC(=O)c2ccc(C)c(C)c2)[nH]c1=O,3%
O=C(CNC1CCCC1)Nc1ccc(N2CCCCCC2)cc1,-4%
COC(=O)c1sc(NC(=O)COc2cccnc2[N+](=O)[O-])c(C(=O)OC)c1C,10%
CC(OC(=O)c1ccccc1O)C(=O)Nc1cccc(Cl)c1 (stereo not given),-18%
COc1ccc(-c2nc3c(n2O)CCCC3=O)cc1OC,4%
CCOC(=O)c1c(C)n(C)c2ccc(OC)c(NC(=O)CCN3CCSCC3)c12,19%
NC(=O)c1ccccc1N,-29%
CS(=O)c1nc(-c2ccc(Br)cc2)cc(-c2ccccc2)c1C#N (stereo not given),-10%
Nc1cccc(P(=O)(c2ccccc2)c2ccccc2)c1,-13%
Cc1nn(-c2ccccc2)c(N)c1C(O)(CC(=O)C(F)(F)F)C(F)(F)F (stereo not given),1%
CN1C(=O)CSc2ccc(NC(=O)Nc3ccccn3)cc21,3%
COc1ccc(OC)c2sc(N3CCN(C(=O)c4ccco4)CC3)nc12,-4%
COC(=O)C1C2C=CC3(CN(Cc4cccs4)C(=O)C13)O2 (stereo not given),9%
CC(=O)Nc1ccc(NC(=O)COC(=O)c2ccc(S(=O)(=O)N(C)c3ccccc3)cc2)cc1,-6%

Rewritten with each value named: part of the list above
COC(=O)c1sc(NC(=O)COc2cccnc2[N+](=O)[O-])c(C(=O)OC)c1C
- VDR inhibitor = 10%
CC(OC(=O)c1ccccc1O)C(=O)Nc1cccc(Cl)c1 (stereo not given)
- VDR inhibitor = -18%
COc1ccc(-c2nc3c(n2O)CCCC3=O)cc1OC
- VDR inhibitor = 4%
CCOC(=O)c1c(C)n(C)c2ccc(OC)c(NC(=O)CCN3CCSCC3)c12
- VDR inhibitor = 19%

Screening data: PubChem, National Center for Advancing Translational Sciences (NCATS)

The list is partial; the hit share may differ from the screen's.
